PINK1 modulator: modulators of PINK1 expression. 0.2% of 410,000 active. Potency, µM (top dose mostly 76.6 µM), without a hit: top-dose activation (PINK1 increase), usual class: activators. PINK1 immunofluorescence, high-content cytometry, 24 h; active = well fitted activation curve with a large enough effect; inconclusive = small, poorly fitted or top-dose-only effect; inactive = flat fitted curve, though single readings scatter; cell line not stated here;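 also: % of control where 0% means no effect; nearly all actives have a fitted effect of over 65% in size; a mitochondrial uncoupler was the plate control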
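Measures PINK1 amount and localization on or inside mitochondria by immunofluorescence. Stable cells get compounds at 5 concentrations for 24 hours before fixation and staining; CCCP controls included.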
The depositor's hits bear a star; u = inconclusive. Potency is read from the fitted curve at half-maximal effect.

PINK1 modulator	smiles
0.1%	COc1ccccc1CCNC(=O)Cc1c(C)c2c(cc(C)c3c(C)coc32)oc1=O
-0.2%	Cc1ccc(NC(=O)C2CCC(CNS(=O)(=O)c3cccc4nsnc34)CC2)c(C)c1 (stereo unspecified)
14.8%	Cc1ccc(CNC(=O)c2cc3c(s2)-c2ccc(Cl)cc2SC3)cc1
3.9%	Cc1ccccc1NC(=O)CC(NCc1cccnc1)C(=O)O (stereo unspecified)
-1.1%	COC(=O)c1ccccc1NC(=O)N1CCC(n2c(C)nc3cccnc32)CC1
24.0%	O=C(NCCn1cc(SCc2ccc(Cl)cc2)c2ccccc21)c1cccs1
0.0%	COc1ccccc1C(=O)N1CCC(c2c[nH]c3ccccc23)(c2c[nH]c3ccccc23)CC1
1.7%	COc1cc(NC(=O)CSc2nc(-c3ccco3)cc(C(F)(F)F)n2)cc(OC)c1OC
0.9%	CC(C)(C)c1ccc(-c2nc(S(=O)(=O)c3ccccc3)c(N3CCOCC3)o2)cc1
-0.4%	COCc1c(C(=O)N2CCCCC2c2cccnc2)cnn1-c1ncc2c(n1)-c1ccccc1CCC2 (stereo unspecified)
-0.3%	Cc1ccc(C)c(N2CCN(S(=O)(=O)c3ccc(C(=O)N(C)C)s3)CC2)c1
7.0%	Cc1ccc2c(=O)cc(C(=O)Nc3ccc(S(=O)(=O)N(C)Cc4ccccc4)cc3)oc2c1
3.5%	Cc1ccccc1Cn1cc(NC(=O)c2cc(-c3ccc(Cl)cc3)on2)cn1
1.3%	CC(=O)N1CCc2c(sc3c2c(=O)n(-c2ccccc2)c(=O)n3CC(=O)c2ccc(F)cc2)C1
0.0%	CC(C)OC(=O)/C(C#N)=C/c1ccc(-c2ccc(Cl)c(Cl)c2)o1
3.0%	Cc1ccc(C(=O)NCC(c2cccs2)S(=O)(=O)c2ccccc2)cc1C (stereo unspecified)
1.5%	Cc1ccc(Nc2cc(C)c(C#N)c3nc4ccccc4n23)c(C)c1
-0.6%	O=C(Cn1c(=O)nc(-c2ccccc2)c2ccccc21)NCc1ccccc1Cl
u	O=S(=O)(c1ccc(F)cc1)N(CC(O)Cn1c2ccccc2c2ccccc21)c1ccccc1 (stereo unspecified)
-0.2%	COc1ccc(S(=O)(=O)N(CCc2ccccc2)CC(=O)Nc2cccc(OC)c2)cc1

Another view of some results above.
molecule | PINK1 modulator
COc1ccccc1CCNC(=O)Cc1c(C)c2c(cc(C)c3c(C)coc32)oc1=O | 0.1%
Cc1ccc(NC(=O)C2CCC(CNS(=O)(=O)c3cccc4nsnc34)CC2)c(C)c1 (stereo unspecified) | -0.2%
Cc1ccc(CNC(=O)c2cc3c(s2)-c2ccc(Cl)cc2SC3)cc1 | 14.8%
Cc1ccccc1NC(=O)CC(NCc1cccnc1)C(=O)O (stereo unspecified) | 3.9%
COC(=O)c1ccccc1NC(=O)N1CCC(n2c(C)nc3cccnc32)CC1 | -1.1%
O=C(NCCn1cc(SCc2ccc(Cl)cc2)c2ccccc21)c1cccs1 | 24.0%
COc1ccccc1C(=O)N1CCC(c2c[nH]c3ccccc23)(c2c[nH]c3ccccc23)CC1 | 0.0%
COc1cc(NC(=O)CSc2nc(-c3ccco3)cc(C(F)(F)F)n2)cc(OC)c1OC | 1.7%
CC(C)(C)c1ccc(-c2nc(S(=O)(=O)c3ccccc3)c(N3CCOCC3)o2)cc1 | 0.9%
COCc1c(C(=O)N2CCCCC2c2cccnc2)cnn1-c1ncc2c(n1)-c1ccccc1CCC2 (stereo unspecified) | -0.4%
Cc1ccc(C)c(N2CCN(S(=O)(=O)c3ccc(C(=O)N(C)C)s3)CC2)c1 | -0.3%
Cc1ccc2c(=O)cc(C(=O)Nc3ccc(S(=O)(=O)N(C)Cc4ccccc4)cc3)oc2c1 | 7.0%
Cc1ccccc1Cn1cc(NC(=O)c2cc(-c3ccc(Cl)cc3)on2)cn1 | 3.5%
CC(=O)N1CCc2c(sc3c2c(=O)n(-c2ccccc2)c(=O)n3CC(=O)c2ccc(F)cc2)C1 | 1.3%
CC(C)OC(=O)/C(C#N)=C/c1ccc(-c2ccc(Cl)c(Cl)c2)o1 | 0.0%

The list goes on:
PINK1 modulator	smiles
-1.1%	Cc1ccc(C)c(Nc2nnc(-n3nc(C)cc3C)c3ccccc23)c1
2.2%	Cc1ccc(OCCCn2c(CCNC(=O)C3CCCCC3)nc3ccccc32)c(C)c1
0.0%	COc1cccc(C(c2sc3nc(-c4ccco4)nn3c2O)N2CCN(c3ccccc3F)CC2)c1 (stereo unspecified)
2.1%	COC(=O)CC1Oc2ccccc2-n2cc(-c3ccccc3)nc21 (stereo unspecified)
-1.3%	COc1ccc(C2CC(=O)Nc3c2c(=O)nc2c(C)cccn32)cc1 (stereo unspecified)
-1.0%	COc1cccc(CN2CCC(n3cc(C(=O)N4CCCCC4)nn3)CC2)c1OC
-1.7%	O=C(c1ccccc1)N1c2ncnn2C2(CCCCC2)[C@@H]2CCCC[C@@H]21
1.8%	O=C(NCCc1ccc(Cl)cc1)C(=O)NCC(c1ccco1)S(=O)(=O)c1cccs1 (stereo unspecified)
2.5%	Cc1nc2ccccc2c(=O)n1-c1ccc(NC(=O)c2ccc([N+](=O)[O-])cc2)cc1
0.9%	CCOc1ccccc1NC(=O)C1CCN(S(=O)(=O)c2c(C)noc2/C=C/c2ccc(C)cc2)CC1
1.7%	CCc1ccccc1Nc1nc2ccccc2n2cnnc12
0.8%	O=C(NCc1ccccc1)c1cccc(NC(=O)N2CCSc3ncccc32)c1
0.8%	CCN(CC)c1cc2c(cc1F)c(=O)c(S(=O)(=O)c1ccc(OC)cc1)cn2CC
1.5%	CCOc1ccc(NC(=O)c2cnc3sc(N4CCOCC4)nn3c2=O)cc1
2.2%	Cc1n[nH]c(C)c1S(=O)(=O)N1CCCC(C(=O)Nc2ccc(Cl)cc2)C1 (stereo unspecified)
22.4%	CCCCCN1C(C(=O)c2ccccc2)=C(OC(=O)CC)c2ccccc2S1(=O)=O
5.6%	Fc1ccccc1C(NCCc1ccc(Cl)cc1)c1nnc(-c2ccccc2)o1 (stereo unspecified)
4.8%	Cc1cc(=O)n(Cc2ccccc2)c2c1c(C)nn2C
6.6%	CCC1CCCCN1S(=O)(=O)c1ccc(NC(=O)c2cc(=O)c3ccccc3o2)cc1 (stereo unspecified)
u	CCOc1ccc(C(=O)c2cn(CC(=O)Nc3ccc(F)c(F)c3)c3cc4c(cc3c2=O)OCCO4)cc1

The list continues.
PINK1 modulator	smiles
1.0%	Cc1cccc2cc(CN(C(=O)c3ccc(-c4ccc(F)cc4)cc3)C3CC3)c(N3CCC(O)CC3)nc12
1.1%	O=C(Cn1ccc2cc(S(=O)(=O)N3CCCCC3)ccc21)NCc1cccc(Cl)c1
u	O=C(C[n+]1cccc2cc(Cl)ccc21)c1ccc2ccccc2c1
1.0%	Clc1ccc(N2CCN(Cc3nnc(-c4ccc5c(c4)OCO5)o3)CC2)cc1
-4.4%	COc1cc(Cl)c(C)cc1NC(=O)c1c(C)oc2nc(C)nc(N3CCCC3)c12
0.8%	Cc1ccc(C)c(Cn2c3ccccc3c3cnn(CC(=O)NC4CCCCCC4)c(=O)c32)c1
0.3%	COc1cc2c(NC3CCN(C)CC3)nc(N3CCCN(C)CC3)nc2cc1OCCN(C)C
-1.7%	Cc1ccc(CSC2=Nc3ccccc3C3=NC(CCC(=O)N4CCN(c5ccccc5)CC4)C(=O)N23)cc1 (stereo unspecified)
-0.3%	CN(C)CCCNc1cc(N2CCN(C)CC2)ncn1
0.5%	CCC1CCCCN1S(=O)(=O)c1ccc(N2CCCCS2(=O)=O)cc1 (stereo unspecified)
-0.9%	CCOc1ccc(CCNC(=O)CSc2nnnn2-c2ccc(C)cc2C)cc1OCC
10.8%	O=C(Nc1ccc2nc(SCc3ccccc3)sc2c1)c1ccccc1F
1.2%	CN(C)c1ccc(C=NC2CCc3ccccc32)cc1 (stereo unspecified)
2.4%	COc1cccc(C(=O)Nc2cccc(C(=O)OCc3cc(=O)n4nc(C(C)C)sc4n3)c2)c1
-5.3%	Fc1ccc(-c2noc3ncnc(NC4CCCCC4)c23)cc1
0.5%	O=C(NCC(c1cccs1)S(=O)(=O)c1cccs1)c1ccc(C(F)(F)F)cc1 (stereo unspecified)
1.3%	O=C(c1cnn2cccnc12)N1CCOc2ccc(C(O)C(c3ccccc3)c3ccccc3)cc2C1 (stereo unspecified)
0.7%	CCOc1ccc2nc(N3CCN(C(=O)C(C)C)CC3)sc2c1
0.6%	CCn1cc(C(=O)NCc2ccccc2Cl)c(=O)c2cc(S(=O)(=O)N3CCOCC3)ccc21
-0.2%	O=C(Cn1cnc2c(oc3ccccc32)c1=O)Nc1ccccc1C(F)(F)F

(next part)
PINK1 modulator	smiles
-0.8%	CCOc1ccc(Nc2c(S(=O)(=O)c3ccccc3)cnc3ccc(F)cc23)cc1
1.5%	CCOc1ccc(C(=O)Nc2ccc3oc(-c4ccc5ccccc5c4)nc3c2)cc1
1.3%	CN(C)c1c(Br)cc(C=O)cc1Br
2.1%	NC(=O)c1cc(S(=O)(=O)N2CCN(c3cccc(C(F)(F)F)c3)CC2)cs1
0.8%	Cc1cccc(-c2nc(N3CCN(c4ccc(F)cc4)CC3)c3ccccc3n2)c1
-0.5%	O=C(NCCc1ccccc1)C(=O)NCC(c1cccnc1)N1CCN(c2ccccc2)CC1 (stereo unspecified)
-0.1%	CC(=O)Nc1cc(C(=O)NCc2ccc(C)cc2)ccc1S(=O)(=O)c1ccc(Cl)cc1
0.6%	CN(C)c1ncc(C(=O)NCc2ccc(Cl)cc2)cn1
0.0%	COc1ccc2c(c1)OC(C)CN(CCNC(=O)c1cccc(N3CCNC3=O)c1)C2 (stereo unspecified)
0.0%	CCc1ccccc1NC(=O)N1CCOc2ccccc21
0.1%	CC(=O)c1ccc(NC(=O)c2ccc(-c3nc(CSc4ccccc4)c(C)o3)cc2)cc1
1.9%	CCS(=O)(=O)c1oc(-c2ccc(F)cc2)nc1S(=O)(=O)c1ccc(Br)cc1
2.0%	COc1ccc(Cl)cc1-n1nnc(-c2nsc(NC(=O)c3ccccc3Cl)n2)c1C
4.2%	COc1ccccc1CCNC(=O)Cn1ccc2cc(S(=O)(=O)N3CCCCC3)ccc21
1.3%	Cc1cccc(OCCSc2nnc(-c3cccs3)o2)c1
0.0%	Cc1ccc2nc(COc3ccccc3NC(=O)c3ccccc3F)cc(=O)n2c1
3.0%	CCOC(=O)C1=C(C)N=C2SCCC(=O)N2C1c1ccc(OCc2ccccc2)c(OC)c1 (stereo unspecified)
3.2%	Cc1ccc2cccc(NC(=O)c3cccc4c(Cl)cccc34)c2n1
-2.5%	COc1ccccc1CNC(=O)Cn1c(=O)ccc2cc(S(=O)(=O)N3CCCC3)ccc21
1.8%	O=C(NC1CCCC1)c1c[nH]c2ccc(S(=O)(=O)Nc3cccc(C(F)(F)F)c3)cc2c1=O

Continuation.
PINK1 modulator	smiles
-5.0%	Cc1ccc(Nc2c(-c3ccc(N4CCOCC4)cc3)nc3cccc(C)n23)cc1
3.2%	Cc1ccc2nc(CN3CCN(S(=O)(=O)c4ccccc4)CC3)oc2c1
2.6%	CCOC(=O)c1cc(-c2ccc(F)cc2)n(CCC(=O)NC2CCC(C)CC2)c1C (stereo unspecified)
3.4%	COc1ccccc1CNC(=O)Cc1c(C)c2c(cc(C)c3c(C)coc32)oc1=O
5.5%	COC(=O)c1cc2occc2n1Cc1ccc(F)cc1Cl
4.2%	O=C(Nc1ccccc1C(F)(F)F)c1cc2ccccn2n1
-0.7%	O=C(Nc1cccc2c1CCCC2)N1CCOc2ccc(Cl)cc21
-0.1%	CC(=O)N1c2ccccc2C(=O)C1N1CCN(c2ccccc2F)CC1 (stereo unspecified)
-0.9%	CC(C)N1CCN(C(=O)c2cnn(-c3nccc(-c4ccc5c(c4)OCO5)n3)c2-c2ccco2)CC1
2.7%	c1ccc(-c2noc(-c3cccnc3NCc3ccco3)n2)cc1
1.7%	CCc1sc(-c2cc3ccccc3oc2=O)nc1-c1ccc(C)cc1
0.6%	Cn1ncc2c(N3CCN(c4ccccc4Cl)CC3)ncnc21
0.8%	CC(=O)c1nn(-c2ccc(OC(F)(F)F)cc2)nc1Nc1ccc(C)cc1
0.7%	CCSc1nnc(C(C)NC(=O)c2ccc(OC)cc2)n1C (stereo unspecified)
1.9%	Cn1c(SCc2ccccc2Cl)nc2c([nH]c3ccccc32)c1=O
-0.2%	CCOc1ccc(-c2noc(CSc3nnc(-c4ccccc4)n3-c3ccccc3)n2)cc1
1.7%	Cc1ccccc1CNC(=O)c1ccc2c(c1)N(Cc1ccccc1)CCS2
-0.8%	CC1CN(C(=O)N2CCC(C(=O)NCc3cccs3)CC2)c2ccccc2O1 (stereo unspecified)
3.6%	CCCCN(CC)CCCNC(=O)CCN1N=C(c2ccc(OC)cc2)CCC1=O
4.6%	COc1ccc(OCC(=O)N2CCN(C(=O)c3ccc(OC)cc3)CC2)cc1

(more compounds)
PINK1 modulator	smiles
4.9%	CC1=C(C(=O)Nc2ccccc2C)C(c2ccncc2)n2nc(SCc3ccccc3Cl)nc2N1 (stereo unspecified)
0.6%	CCOc1ccccc1N1CC(c2nc3ccccc3n2CCCCOc2cc(C)ccc2C)CC1=O (stereo unspecified)
2.7%	COc1ccc(-c2nc3ccccc3o2)cc1NC(=O)COc1cc(C)cc(C)c1
-1.6%	CCOC(=O)c1ccc(OCC2c3cc(OC)c(OC)cc3CCN2C(=O)Cc2ccc(OC)c(OC)c2)cc1 (stereo unspecified)
2.3%	O=C(NCCc1csc(-c2cccc(F)c2)n1)c1ccccc1C(F)(F)F
0.6%	CC(=O)c1ccc(NC(=O)c2cnn(-c3cccc(F)c3)c2-n2cccc2)cc1
-0.5%	CCOC(=O)c1ccc(NC(=O)C2CCCN(c3ncnc4onc(-c5ccc(F)cc5)c34)C2)cc1 (stereo unspecified)
3.6%	COc1cccc2cc(-c3nc(Nc4cccc(C)c4)sc3C)c(=O)oc12
0.5%	Cc1ccc(CO)cc1Nc1ncnc2onc(-c3ccc(F)cc3)c12
4.3%	CCOC(=O)CSc1nc2cc(OC)c(OC)cc2cc1C#N

These rows are one share of the data; the hit share may differ from the screen's.
